ClpP mod – qHTS Assay for Activators of ClpP | ATP-dependent Clp protease proteolytic subunit (Bacillus subtilis (strain 168)), P80244 | purified B. subtilis ClpP, FRET peptide cleavage, 20 min | Potency, µM (doses to about 57.5 µM), inactives show at the top dose activity change, negative = active | 1.9% of 340,000 active | AID 651965, 2013; active = well fitted falling curve with a large enough effect; inconclusive = small, poorly fitted or top-dose-only effect; inactive = no such curve, though single readings can be large or run the other way; further: potency means the concentration at half of the fitted maximal effect; the source files actives as falling curves though it sought activators and does not explain the sign; nearly all actives have a fitted effect of over 65% in size; many hits overshoot -100%
Target sequence (P80244 whole entry, looked up): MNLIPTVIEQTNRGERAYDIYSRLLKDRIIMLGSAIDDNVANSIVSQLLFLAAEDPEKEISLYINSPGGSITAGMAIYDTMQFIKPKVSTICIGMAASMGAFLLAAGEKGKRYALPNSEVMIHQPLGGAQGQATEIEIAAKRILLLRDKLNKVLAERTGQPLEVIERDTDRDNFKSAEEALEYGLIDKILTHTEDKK
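Buffer: 100 mM Tris/HCl pH8, 100 mM KCl, 0.05% low protease BSA, 2.5% glycerol, 0.01% Tween-20. ClpP 10 microg/mL final; 20 min RT; delta FRET normalized to ADEP and DMSO controls.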
Menin-MLL FL inh – qHTS Assay for Inhibitors Targeting the Menin-MLL Interaction in MLL Related Leukemias: Competition With Fluorescein Labeled MLL-derived Peptide; 290,000 tested, under 10 active; AID 1766, 2009; Fluorescence polarization, fluorescein-MLL peptide displacement from menin; FP activity change, % at 61.4 µM; inconclusive = falling polarisation curve, or a change in total fluorescence; inactive = total fluorescence flat and polarisation flat or rising; no compound was filed as active; the % refers to the polarisation; negative = inhibition;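 further: % of control where 0% means no effect; inhibitors lower the polarisation; unlabelled MLL peptide was the positive control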
gsp ag – qHTS for Agonist of gsp, the Etiologic Mutation Responsible for Fibrous Dysplasia/McCune-Albright Syndrome: qHTS; gsp mutant cells, cAMP HTRF, 30 min; control for the full effect not named in the record; Potency, µM (doses to about 76.9 µM), inactives show top-dose activation (cAMP increase), most hits filed as activators; 0.13% of 340,000 active; active = well fitted activation curve with a large enough effect; inconclusive = small, poorly fitted or top-dose-only effect, or another doubt; inactive = no such curve, though single readings can be large or run the other way; cell line not stated here;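 further: phosphodiesterase inhibitor Ro 20-1724 added with compounds to block cAMP breakdown; potency means the concentration at half of the fitted maximal effect; nearly all actives have a fitted effect of over 60% in size; about a fifth of the inactives were tested at one dose only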
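Cells stably selected in G418 were plated at 2000/well, grown 16-24 hr, then given compounds in DMSO with the PDE inhibitor […] (300 uM solution added) for 30 min at 37C; cAMP was read by HTRF.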
gsp antag – qHTS for Antagonists of gsp, the Etiologic Mutation Responsible for Fibrous Dysplasia/McCune-Albright Syndrome: qHTS. gsp-mutant cells, cAMP HTRF, 30 min; control for the full effect not named in the record. Potency, µM (titrated, usually from 76.9 µM), inactives show at the top dose activity change, negative = inhibition, actives largely listed as inhibitors. 0.4% of 340,000 active; active = falling curve of any shape with a large fitted effect; inconclusive = falling curve, mostly with a smaller effect; inactive = flat or rising curve; cell line not stated here;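 further: intracellular cAMP measured with PDE inhibitor Ro 20-1724 present during compound exposure; potency means the concentration at half of the fitted maximal effect; on the % scale 0 is the no-effect control and ±100 the full control effect; nearly all actives have a fitted effect of over 65% in size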
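HTRF cAMP measurement after 30 min RT detection following 30 min, 37C compound treatment alongside […] (added as 300 uM solution) in G418-selected cells seeded at 2000/well and grown 16–24 h.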
TRPML1 inh – qHTS for Inhibitors of the Human Mucolipin Transient Receptor Potential 1 (TRPML1) | Mucolipin-1 (Homo sapiens), Q9GZU1 | TRPML1-inducible cells, Ca2+ dye fluorescence, FDSS; active compounds read low; inhibition of EC80 agonist-evoked calcium signal | activity change, negative = inhibition, % (no concentration beside the values) | 0.02% of 390,000 active | AID 624415, 2012; in the data active means activity change below about -50%; inconclusive means about -30% to -50%; inactive means above about -30%;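 further: stimulus is agonist 54-4 at its EC80 concentration; on the % scale 0 is the no-effect control and ±100 the full control effect; compound concentration not given in the record; the text of the record puts the active cut at -80%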
Target sequence (Q9GZU1 whole entry, looked up): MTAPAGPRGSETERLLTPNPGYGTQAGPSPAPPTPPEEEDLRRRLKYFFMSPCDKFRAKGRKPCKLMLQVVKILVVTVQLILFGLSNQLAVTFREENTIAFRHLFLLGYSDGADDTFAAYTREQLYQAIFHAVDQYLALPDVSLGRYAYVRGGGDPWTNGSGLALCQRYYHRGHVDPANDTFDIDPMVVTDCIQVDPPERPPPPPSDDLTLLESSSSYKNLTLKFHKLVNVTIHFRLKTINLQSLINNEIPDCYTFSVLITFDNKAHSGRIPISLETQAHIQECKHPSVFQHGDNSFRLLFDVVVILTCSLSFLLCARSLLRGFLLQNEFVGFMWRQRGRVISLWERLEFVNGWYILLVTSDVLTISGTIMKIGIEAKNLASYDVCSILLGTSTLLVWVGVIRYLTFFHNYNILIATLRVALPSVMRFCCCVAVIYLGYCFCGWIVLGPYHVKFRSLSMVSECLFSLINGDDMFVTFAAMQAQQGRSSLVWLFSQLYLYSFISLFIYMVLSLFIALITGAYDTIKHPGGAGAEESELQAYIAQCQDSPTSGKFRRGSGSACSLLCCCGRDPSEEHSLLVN
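Tet-induced TRPML1-DL cells loaded with Ca8 no-wash calcium dye were read kinetically on FDSS. Compound addition was followed by EC80 agonist 54-4 (4 uM final); inhibition was read over 110 s.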
TRPML1 ag – qHTS for Agonists of the Human Mucolipin Transient Receptor Potential 1 (TRPML1); TRPML1-expressing cells, Ca2+ dye fluorescence, FDSS; host cell line not named in the record; reference of the full effect not given here; activation, % (no concentration beside the values); 0.12% of 410,000 active; AID 624414, 2012; in the data active = activation above about 50%; inconclusive = about 30% to 50%; inactive = below about 30%; further: 0% is about no effect; the text of the record puts the active cut at 80%
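Agonist activity was taken from a 110 s kinetic Ca2+ dye read on the FDSS after pinning compounds onto TRPML1-DL cells. The cells were seeded at 1,500/well with Tet inducer, incubated about 16 h, then dye-loaded at room temperature.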
An asterisk follows results filed as active; u = inconclusive; x = no result given; & = joins results of further samples; [ ] = dose if it differs, or a comment. Random draw from the library. About 2.1% of those tested had a hit in this group.

SMILES	ClpP mod	Menin-MLL FL inh	gsp ag	gsp antag	TRPML1 inh	TRPML1 ag
Cc1cc(C)c(/C=C(\C#N)C(N)=S)c(C)c1	0.5%	-3.1	-97%[inhibitor]	5%	-13	0.6
C/C(=N\N=C1\NC(=O)C(CC(=O)Nc2ccccc2F)S1)C1CCCCC1 (configuration not stated)	1.6%	-3.1	-7%	0%	-5	0.9
COCCn1c(N)c(N(Cc2ccccc2)C(=O)Cc2c(Cl)cccc2Cl)c(=O)[nH]c1=O	x	3.8	9%[15.4 µM]	3%	-10	-0.5
O=C(CCNC(=O)c1ccc([N+](=O)[O-])cc1)Nc1nccs1	0.4%	-0.1	19%	8%	12	1.1
COc1ccc(C(=O)NCCNc2ccc([N+](=O)[O-])cn2)cc1	0.8%	-2.3	u	11%	4	1.3
COC(=O)c1[nH]c2cc(OC)ccc2c1NC(=O)CN1CCC(C(N)=O)CC1	-22%	-0.9	29%	-6%	2	2.9
O=C(Nc1nncs1)c1cccc(S(=O)(=O)N2CCc3ccccc32)c1	x	-2.5	6%[15.4 µM]	-8%	17	2.7
COc1ccc2c(CNCc3cccs3)c(C(=O)O)n(Cc3ccccc3C)c2c1	u	x	x	x	5	-0.5
Cc1cc(C(=O)O)ccc1-c1ccc(/C=C2\NC(=O)N(Cc3ccccc3Cl)C2=O)o1	x	u	-11%[15.4 µM]	1%	-6	-0.2
CCc1nn(C)c2c(=O)c(=O)c2n(C)[nH]1	-0.7%	x	7%[15.4 µM]	14%	5	-0.4
Cc1n[nH]c(C)c1S(=O)(=O)N1CCCC(C(=O)N2CCN(c3ccc(Cl)cc3)CC2)C1 (configuration not stated)	-0.4%	-0.8	-45%[inhibitor]	35µM*	-1	-0.7
CCC(Sc1ncnc2c1nnn2-c1ccc(F)cc1)C(=O)OC (configuration not stated)	-2.8%	1.1	5%	4%	24	2.9
CCOc1ccccc1OCCCC(=O)Nc1cccc(-n2cnnn2)c1C	0.2%	x	1%	8%	33	-0.5
c1ccc(COc2ccccc2CNC2CCCC2)cc1	x	0.2	8%[15.4 µM]	6%	27	0.5
O=C1CCCc2nc(N3CCN(C(c4ccccc4)c4ccccc4)CC3)ncc21	-5.0%	-0.2	10%	-24%	-4	6.6
CC(=O)CSc1ncnc2sc3c(c12)CCCC3	x	2.3	u	7%	2	2.5
CCCCCCSc1ccc(-c2nc3cc(C)ccn3c2NC2CCCCC2)cc1	4.1%&3.4%	x	u	6%	7	-0.2&-0.1
COc1cc(C(=O)NCCCCc2ccccc2)cc(OC)c1OC	-1.4%	0.9	22%	-2%	2	2.2
CCOC(=O)C1CCN(c2nc3c(S(=O)(=O)c4ccc(Br)cc4)nnn3c3ccsc23)CC1	14µM*	x	x	x	56	0.9
CCc1ccc(OCCCC(=O)Nc2ccc(N3CCCCC3)cc2)cc1	2.2%	0.4	21%	3%	7	4.4
Cc1ccc(-c2cc(C(=O)Nc3ccc(S(=O)(=O)Nc4nc(C)cc(C)n4)cc3)c3ccccc3n2)cc1	-1.7%	3.1	15%[15.4 µM]	-3%	-12	-0.3
CC(C)(C)N1CC(c2nc3ccccc3n2CCOc2ccccc2)CC1=O (configuration not stated)	-0.6%	3.1	-13%	5%	3	-0.4
COc1cccc(C(=O)Oc2cccc(N3C(=O)C4C5CC(C(Br)C5Br)C4C3=O)c2)c1 (configuration not stated)	-2.2%	0.2	-12%	5%	11	0.0
CC(=O)NC(CC(=O)NCc1ccncc1)c1ccccc1 (configuration not stated)	0.4%	x	9%	12%	-1	-0.8
COCC(C)NC(=O)c1cc(-c2ccc(OC)c(OC)c2)on1 (configuration not stated)	-1.9%	-0.9	2%	4%	-2	0.0

Quoted from the listing:
TRPML1 ag with CC(C)(C)N1CC(c2nc3ccccc3n2CCOc2ccccc2)CC1=O (configuration not stated) stands at -0.4
ClpP mod with O=C(CCNC(=O)c1ccc([N+](=O)[O-])cc1)Nc1nccs1 stands at 0.4%

Later entries:
SMILES	ClpP mod	Menin-MLL FL inh	gsp ag	gsp antag	TRPML1 inh	TRPML1 ag
COc1cc(CC(=O)Nc2nc(-c3ccc(F)c(F)c3)cs2)cc(OC)c1OC	x	2.8	-25%[15.4 µM]	u	-8	-0.1
COc1ccc2c(c1)-c1nc(/N=C/c3cccc(OC)c3O)sc1CC2	-6.5%	15	u	2%	-11	1.6
O=C(NCCCn1ccnc1)c1cccc(S(=O)(=O)Nc2ccc(Br)cc2)c1	0.7%	x	-13%[15.4 µM]	-8%	-5	-0.1
O=S(=O)(Nc1nccs1)c1ccc(F)cc1	-5.8%	5.8	20%	0%	10	0.7
Fc1ccc(CSc2nc3ncccc3[nH]2)cc1	-3.5%	5.3	u	0%	-3	0.4
Cc1ccc(CNC(=O)C(C)n2nc(C)n3c(cc4sccc43)c2=O)cc1 (configuration not stated)	-19%	x	x	x	6	-0.9
COCCN1C(=O)C(=O)/C(=C(/O)c2cccc(OC)c2)C1c1ccncc1 (configuration not stated)	-1.5%	-2.7	40%	-1%	1	-0.4
Cc1ccc(C)c(NC(=S)Nc2ccc(S(=O)(=O)Nc3ncccn3)cc2)c1	-0.7%	4.5	u	2%	1	-0.2
Cc1oc2ncn(CC(C)C)c(=O)c2c1C(=O)NCc1cccc(Cl)c1	-0.7%	x	x	x	21	-0.2
O=S(=O)(c1ccc(F)cc1F)N1CCCN(c2ccc(C(F)(F)F)cn2)CC1	x	1.0	-21%	3%	16	0.0
Cc1cc(C)c2c(CCl)cc(=O)oc2c1	x	2.0	-3%[15.4 µM]	6%	-2	4.0
COc1ccc(NC(=O)c2ccc(Cn3cc(Cl)cn3)cc2)cc1	x	-1.2	-31%[inhibitor]	7%	-4	1.1
CCCC12CN(C(=O)c3ccc([N+](=O)[O-])cc3)CC(C)(CN(C(=O)c3ccc([N+](=O)[O-])cc3)C1)C2=O	-1.6%	0.8	-15%[15.4 µM]	-10%	30	-0.1
CC(=O)Nc1ccc(SCC(=O)Nc2ccccc2-c2ccccc2)cc1	1.5%	5.9	u	-35%	-26	0.3
COC(=O)c1[nH]c2ccc(Br)cc2c1NC(=O)CN1CCN(C2CCCCC2)CC1	-24%	-0.7	26%	-6%	1	0.0
CC(C)(C)n1nnnc1C(c1ccc(C(F)(F)F)cc1)N(Cc1ccc(F)cc1)Cc1ccco1 (configuration not stated)	0.2%	0.1	-21%	3%	-17	5.8
O=C(Nc1cccc(C(=O)O)c1)/C(=C\c1ccccc1Cl)NC(=O)c1ccco1	22%	x	-29%	6%	21	-0.5
Cn1c(/C=N/c2nc3ccccc3[nH]2)nc2ccccc21	-6.7%	0.9	6%	9%	-9	0.8
COc1cccc(NC(=O)Cc2csc(COc3cccc(C)c3)n2)c1	1.2%	x	x	x	28	0.0
COc1ccc(Cl)cc1NC(=O)c1c(NCc2cccnc2)sc2c1CCC(C)C2 (configuration not stated)	-0.9%	x	x	x	23	-0.8
COc1ccc(CN2CCn3ncc(C(=O)Nc4ccc(Cl)cc4Cl)c3C2=O)cc1	u	-1.5	-4%	-8%	4	-0.3
Cc1ccc(C(=O)N/C(=C/c2ccco2)C(=O)N2CCCCC2)cc1	x	5.5	2%	6%	4	0.1
C[C@@H]1CN([C@H](C)CO)C(=O)CCCn2nncc2CO[C@@H]1CN(C)C(=O)CCC(F)(F)F	0.4%	x	3%	x	3	-0.2
CCS(=O)(=O)c1ccc2oc(SCC(=O)NCc3ccccc3)nc2c1	x	-1.5	-2%[15.4 µM]	-7%	6	-0.7
Cc1[nH]c2ccccc2c1C(=O)CN1C(=O)NC2(CCCCCC2)C1=O	2.8%	x	5%	10%	-10	-0.1
SMILES	ClpP mod	Menin-MLL FL inh	gsp ag	gsp antag	TRPML1 inh	TRPML1 ag
O=S(=O)(c1ccc(N2CCN(S(=O)(=O)c3ccccc3)CC2)nc1)N1CCCC1	x	1.5	-12%[15.4 µM]	1%	7	-0.7
Cc1ccc2c(CN3CCN(S(=O)(=O)/C=C/c4ccccc4)CC3)cc(=O)oc2c1	-4.0%	3.1	u	0%	-10	1.9
O=C(O)CN1C(=O)/C(=C\c2ccc(OC(=O)c3ccco3)cc2)SC1=S	x	u	-56%[inhibitor]	1%	-1	0.0
O=C(c1ccc(Cl)cc1Cl)N1CCC(C(=O)N2CCOCC2)CC1	x	-5.4	2%	8%	-5	0.3
COc1cccc(OCc2nnc(SCC(=O)NNC(=O)C3CCCCC3)n2C)c1	x	-1.2	-4%[15.4 µM]	7%	-12	-0.2
COc1ccccc1C1CC(=O)Nc2c1c(=O)n(C)c(=O)n2C (configuration not stated)	3.1%	3.2	u	7%	18	-0.5
CCCCn1c(N)c(N(CC)C(=O)c2ccc(C)cc2)c(=O)[nH]c1=O	x	0.2	6%[15.4 µM]	7%	27	0.9
CCn1ccc(C(=O)Nc2cccc(Cl)c2)n1	x	0.0	27%	-1%	3	0.2
CN(CC(=O)Nc1ccc(S(=O)(=O)N2CCCC2)cc1)CC(=O)Nc1ccc(F)c(F)c1F	x	u	11%[15.4 µM]	-20%	6	0.4
CCc1cc2c(=O)c(-c3nc(C)cs3)coc2cc1O	x	6.8	-15%[15.4 µM]	7%	-21	1.0
COc1cc(C(c2c(C)[nH][nH]c2=O)c2c(C)[nH][nH]c2=O)ccc1OS(=O)(=O)c1ccccc1	-3.2%	2.5	0%	-4%	6	-0.2
COC(=O)c1ccc(NC(=O)N2CCN(Cc3cc(=O)n4nc(-c5ccc(C)cc5)sc4n3)CC2)cc1	-3.2%	x	x	x	-12	-0.7
COc1ccccc1N1CCN(/N=C\c2cccnc2)CC1	x	-2.3	-1%	6%	24	0.0
CCOC(=O)CC(NC(=O)Cc1ccc(F)cc1)c1ccccc1Cl (configuration not stated)	-1.1%	3.3	1%	3%	9	0.4
Cn1c(N)c(C(=O)COC(=O)Cc2cccc(C(F)(F)F)c2)c(=O)n(C)c1=O	0.5%	x	-28%	-3%	5	0.9
COc1cc(SC)ccc1C(=O)NCCOc1ccc(C)c(C)c1	-4.9%	0.9	-57%[inhibitor]	-34%	8	1.6

Screens: PubChem BioAssay, National Center for Advancing Translational Sciences (NCATS)
